Prx2 Sm inh: Schistosoma mansoni Prx2 inhibition. S. mansoni Prx2 activity coupled to TGR/GSH (TGR is thioredoxin glutathione reductase), NADPH fluorescence loss, qHTS; some inactives read as strong as hits. Potency, µM. 65,000 tested, 0.07% active; active means full or partial inhibition curve with a strong effect at the top dose; inconclusive means weaker partial or single-point curve; inactive means no accepted curve; also: series up to 57 µM; many of its hits are not listed in these tables
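Purified S. mansoni TGR and Prx2 in pH 7.4 phosphate buffer with EDTA and Tween-20 were preincubated with compounds for 15 min. Further NADPH/GSH was added, then a 2.5 mM H2O2 aliquot initiated turnover, followed kinetically by NADPH fluorescence.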
LT uptake inh: inhibitors of anthrax lethal toxin internalization | Potency, µM (titrated, usually from 40 µM), for inactives: top-dose activity change, negative = inhibition, hits mostly inhibitors | Cells, anthrax lethal toxin internalization, FRET ratio (460/530) | AID 912 | 70,000 tested, 0.67% active; active = well fitted falling ratio curve with the 530 nm signal flat; inconclusive = other ratio curves, or a change in one channel alone; inactive = flat curves in the ratio and both channels; the % refers to the ratio; also: % is scaled to controls: 0 for no effect and ±100 for the full control effect; nearly all actives have a fitted effect of over 50% in size; tested in ME-180 cells; beta-lactamase reporter
* marks the source's active call; other numbers are inactive results; ? = inconclusive; · = no result given; & = joins results of further samples; [ ] = remark or other dose. Potency is read from the fitted curve at half-maximal effect. These rows are one share of the data (hit frequency here may not be typical).

cpd	structure	Prx2 Sm inh	LT uptake inh
1	CCOC(=O)C1CCCN(Cc2ccccc2OCC)C1 (stereo not given)	>57	?
2	CCS(=O)(=O)N1CCC(C(=O)NCCCN2CCCCCC2)CC1	>57	9%
3	CCN(CC)CCCN=Cc1c(O)n(-c2cccc(C)c2C)c(=O)[nH]c1=O	>57	·
4	COc1ccccc1NC(=O)C(C)Sc1nnnn1C (stereo not given)	>57	18%
5	Clc1ccc(-c2nn3c(Cn4cnc5ccccc54)nnc3s2)c(Cl)c1	>57	-12%
6	CN(C)c1ccc(-c2ccccc2)nn1	>57	2%
7	CC(C)(C)C1CCc2c(sc(NC(=O)c3cc(C4CC4)on3)c2C#N)C1 (stereo not given)	>57	?
8	Cn1c(=O)c2c(SCc3ccccn3)nc(C3CC3)nc2n(C)c1=O	>57	-2%
9	Cc1cnc(CNc2ncncc2-c2cccc(NS(C)(=O)=O)c2)cn1	>57	2%
10	O=C(c1ccc(CS(=O)(=O)c2cccc(C(F)(F)F)c2)o1)N1CCN(c2ccccn2)CC1	>57	?
11	CCOc1ccccc1N1CCN(C(=O)c2ccncc2)CC1	·	0%
12	O=c1c2ccccc2sc2c(CO)ccc(NCCN3CCCCC3)c12	>57	?
13	Cn1c(SCC(=O)Nc2ccccc2F)nnc1-c1ccc(S(=O)(=O)N2CCOCC2)cc1	>57	-16%
14	O=c1cc(-c2ccccc2)[nH]n1-c1nc2ccccc2s1	>57	-7%
15	Cc1cccnc1N(C(=O)Nc1ccccc1)C1=NCC(C)(C)S1	>57	-10%
16	CC1=C(C(=O)OCc2ccccc2)C(c2ccoc2)C(C#N)=C(N)O1 (stereo not given)	?	31%
17	Cc1cc(C)nc(SCc2nnc(SCC(=O)N3CCOCC3)o2)n1	>57	-14%
18	O=C(Oc1ccc(OC(=O)N2CCOCC2)cc1)c1ccccc1	>57	6%
19	COc1ccc(C(C(=O)OCCN(C)C)c2ccccc2)cc1 (stereo not given)	>57	9%
20	COc1ccccc1NC(=O)N(Cc1ccco1)Cc1cc2ccc(C)c(C)c2[nH]c1=O	>57	?
21	CC1=Nn2c(nnc2-c2ccccc2Cl)SC1	>57	17%
22	COc1ccc(-c2nc3cnc(N(C)C)nc3n(Cc3ccc(F)cc3)c2=O)cc1	>57	?
23	Cc1onc(-c2c(Cl)cccc2Cl)c1C(=O)Nc1c(C)n(C)n(-c2ccccc2)c1=O	>57	2%
24	C[N+]1(CCCCC[N+]2(C)CCCC2)CCCC1	>57&>57	?
25	Cn1c(SCCOc2cccc(Cl)c2)nnc1-c1ccncc1	>57	-5%
26	COc1cc2c(C#N)c(N3CCc4ccccc4C3)nc(N)c2c(N)n1	>57	-27%
27	COc1ccc(-c2nnn(CCc3nn[nH]n3)n2)cc1OC	>57	1%
28	CN(C)c1ccc(CN2CCCCCC2)cc1	·	-16%
29	CC(C)CC(NC(=O)C1CCC(C)CC1)C(=O)Nc1ccccn1 (stereo not given)	>57	18%
30	O=C1CCc2cc(S(=O)(=O)NC(Cc3ccccc3)C(=O)NC3CCCC3)ccc2N1 (stereo not given)	>57	-17%
31	COc1cccc(C(=O)N(CN2CCCC2=O)c2cccc(Cl)c2)c1	>57	-8%
32	O=C(CN1CCOc2ccccc21)NCc1ccccc1	>57	-7%
33	Cc1cc2ncn(CCOc3ccccc3C#N)c2cc1C	>57	0%
34	CCOC(=O)C1CCN(C(=O)CN(c2cccc(OC)c2)S(=O)(=O)c2ccccc2)CC1	>57	18%
35	CCc1ccc(S(=O)(=O)NC(CC(=O)O)c2ccccc2)cc1 (stereo not given)	·	1%
36	CCCNC(=O)c1c(N)n(-c2ccc3c(c2)OCO3)c2nc3ccccc3nc12	>57	19%
37	O=C(O)c1nn(Cc2ccc(Cl)cc2Cl)c2ccccc12	>57&>57	?
38	O=C1COc2ccc(C(=O)CSc3nnc(-c4cccs4)n3Cc3ccccc3)cc2N1	>57	-23%
39	O=C(C1Cc2ccccc2CN1S(=O)(=O)c1cccs1)N1CCCCC1 (stereo not given)	>57	-6%
40	O=C(O)C(CCCCN1C(=O)C2C3C=CC(C3)C2C1=O)N1C(=O)C2C3C=CC(C3)C2C1=O (stereo not given)	>57	8%
41	C/C(Cl)=C/CSc1nc2c(c(=O)[nH]c(=O)n2C)n1C(C)C	>57	-2%
42	C/C(=C\COc1cc(=O)[nH]c2ccccc12)CC[C@@H](O)C(C)(C)O	>57	?
43	CC1CCCCN1CC(=O)Nc1sc2c(c1C#N)CCC2 (stereo not given)	>57	12%
44	Cc1c(NC(=O)C2CCCN2S(=O)(=O)c2ccccc2)c(=O)n(-c2ccccc2)n1C (stereo not given)	·	-15%
45	C=CCn1c(SCC(=O)Nc2nc(C)cs2)nnc1C(CO)NC(=O)c1ccccc1 (stereo not given)	>57	5%
46	CC(C)C(C(=O)Nc1ccc2c(c1)OCO2)N1C(=O)c2ccccc2C1=O (stereo not given)	·	-2%
47	COc1ccc(Cl)cc1NC(=O)CN1CCC(n2nnc3cc(C)ccc32)CC1	>57	-12%
48	COC(=O)C1CCN(C(=O)c2ccc(Cl)c(S(=O)(=O)NCc3cccnc3)c2)CC1	>57	-2%
49	CCCOc1ccc(C2c3c(oc4cc(C)c(C)cc4c3=O)C(=O)N2CCCN(C)C)cc1OCC (stereo not given)	>57	-19%
50	O=C(COc1ccc(Cl)cc1)Nc1ccccc1C(=O)NCc1ccco1	>57	-11%
51	COc1ccccc1CNc1ncncc1-c1ccc(C(=O)N(C)C)cc1	>57	?
52	Cc1ccc(S(=O)(=O)N(C)c2ccc(NS(C)(=O)=O)cc2)cc1	>57	·
53	COCCn1c(C(=O)N2CCCC2)cc2c1C[C@H]1CN(C(=O)c3ccccc3)[C@@](Cc3ccccc3)(C(=O)OC)[C@@H]21	>57	?
54	Cc1cc(C)n(-c2nnc(C)c(=O)[nH]2)n1	·	-11%
55	COc1nc2ccc(C)cc2cc1-c1noc(-c2cccnc2)n1	>57	6%
56	NC(=S)Nc1ccccc1	·	?
57	O=C(Nc1ccccc1C(=O)NC(Cc1c[nH]c2ccccc12)C(=O)O)c1ccco1 (stereo not given)	>57	6%
58	Cn1c(=O)c2c(SCC(=O)c3ccccc3)nc(C3CC3)nc2n(C)c1=O	>57	-8%
59	CC(=NC1CCN(Cc2ccccc2)CC1)c1c(O)[nH]c(=O)[nH]c1=O	>57	-8%
60	O=C(NCc1cccs1)c1cccc(S(=O)(=O)N2CCCCC2)c1	>57	-5%

The results go on:
cpd	structure	Prx2 Sm inh	LT uptake inh
61	COc1ccc(OC)c(NC(=O)Nc2nnc(N3CCC(C)CC3)s2)c1	>57	?
62	COc1ccc(Nc2nc3c(c(=O)n(C)c(=O)n3C)n2CCO)cc1	>57	-7%
63	Cn1c(SCC(=O)c2ccccc2F)nnc1C1CC1	>57	-7%
64	CCC1=NC(c2ccc(OC)cc2OC)N(O)C1(C)C (stereo not given)	>57	0%
65	OC[C@@H]1O[C@@H](n2cnc3c(SCc4ccccc4)ncnc32)[C@@H](O)[C@H]1O	>57	?
66	CCNc1ncc2nc(-c3ccc(OC)cc3)c(=O)n(Cc3cccs3)c2n1	>57	?
67	CCc1cc2c(=O)n(N)c(CCC(=O)O)nc2s1	·	2%
68	COc1ccc(-n2c(C)nc3c(cnn3-c3ccccc3)c2=O)cc1	>57	·
69	CN1CCCC(OC(=O)CCCC(=O)OC2CCCN(C)C2)C1 (stereo not given)	>57	?
70	CCCNC(=O)NC(=O)CN1C(=O)NC(C)(c2ccc(C)cc2)C1=O (stereo not given)	>57	-1%
71	CCOC(=O)c1cc(NC(=O)C2CCCO2)cc(C(=O)OCC)c1 (stereo not given)	>57	?
72	COc1ccccc1S(=O)(=O)Cc1ccc(C(=O)NCc2cccs2)o1	>57	·
73	COC(=O)c1ccc(C(NC(=O)OCc2ccccc2)/C(F)=C/[C@@H](C)C(=O)NCc2cccnc2)cc1 (stereo not given in full)	·	6%
74	Nc1ccc(S(=O)(=O)Nc2ccc(S(N)(=O)=O)cc2)cc1	>57	4%
75	CC(=O)N1CCc2cc(S(=O)(=O)CCC(=O)Nc3c(C)n(C)n(-c4ccccc4)c3=O)ccc21	>57	6%
76	C=CCN(C(=O)CSc1nc2[nH]ncc2c(=O)n1-c1ccccc1OC)c1ccccc1	>57	?
77	COc1ccc(CCNC(=O)Cn2nnc(-c3cccs3)n2)cc1OC	>57	-6%
78	CC1(C)CC(=O)C=C(NCCN2CCN(C(=O)Cc3ccc(Cl)cc3)CC2)C1	>57	3%
79	CC(C)(C)N(Cc1ccccc1)C(=O)c1ccc2c(c1)OCCO2	>57	-6%
80	Cc1cc(OC(=O)N2CCOCC2)cc(C)c1Cl	>57	?
81	CCOC(=O)C1CCN(C(=O)c2ccc(SC)cc2OC)CC1	>57	0%
82	O=C(O)c1ccc(Cl)c(S(=O)(=O)NCc2ccco2)c1	>57	3%
83	Cc1ccc(S(=O)(=O)N2CCN(C(=O)C3CCCCC3)CC2)cc1	>57	9%
84	CS(=O)(=O)N(CC(=O)N1CCCCC1)c1ccc2c(c1)OCO2	>57	-2%
85	Cc1nnc(C)c2c(C)n(C(C)c3ccccc3)c(C)c12 (stereo not given)	>57	4%
86	CC(C)(C)c1ccc(C(=O)NCCC(=O)NCc2ccco2)cc1	>57	?
87	CSCC[C@H](NC(=O)NCc1ccc(F)cc1)C(=O)O	>57	-2%
88	c1ccc(Cn2c(-c3ccco3)nc3nc4ccccc4nc32)cc1	>57	?
89	CC(=O)Nc1cccc(NS(=O)(=O)c2cccc3nsnc23)c1	>57	3%
90	O=C1c2ccccc2-c2c1cccc2C(=O)N(CCO)CCO	>57	-8%
91	CC(CN1CCOCC1)OC(=O)c1ccc(Br)cc1 (stereo not given)	>57	13%
92	N#Cc1nc(N)nc(N(c2ccccc2)c2ccccc2)n1	>57	-20%
93	O=C1C2=C(Nc3cc([N+](=O)[O-])ccc3N2)O[C@@H]1c1c[nH]c2ccc(COc3ccccc3)cc12	>57	-14%[8 µM]
94	Clc1cc(Cl)c(Cl)cc1Cl	·	2%
95	CC1(C)CC2(CC(C)(C)NC(=O)N2)NC(=O)N1	>57	-7%
96	COc1ccc(/C=N/n2cc(-c3ccc(OC)cc3)nc2N)cc1	·	?
97	O=C(Nc1nc2c(s1)CCCC2)c1ccc2ncsc2c1	>57	10µM*
98	O=c1[nH]c2cc3c(cc2cc1CN(Cc1nnnn1CC1CCCO1)C1CCCCC1)OCO3 (stereo not given)	>57	-13%
99	O=S(=O)(c1ccccc1)N1CCC2(CCN(Cc3ccccc3)CC2)CC1	>57	?
100	COc1cccc(-c2nnc(SCc3ccc(C#N)cc3)n2Cc2ccco2)c1	>57	0%
101	COC(=O)CC1C(=O)NCCN1C(=O)CSc1nnc(Nc2ccc(OC)cc2)s1 (stereo not given)	>57	15%
102	Cc1oc2ccc(OC(=O)N3CCOCC3)cc2c1C(=O)OC(C)C	>57	-21%
103	N#Cc1c(NC(=O)CCn2cnc3ccccc3c2=O)oc(-c2ccccc2)c1-c1ccccc1	>57	?
104	Cn1c(=O)c2c(-c3ccccc3)n3c4ccccc4ncc3c2n(C)c1=O	>57	2%
105	CCC1SC2=NC(C)=C(C(=O)OC)C(c3ccc(C)cc3)N2C1=O (stereo not given)	>57	-8%
106	COc1ccccc1C1C2C(=O)N(c3ccccc3)C(=O)C2ON1c1ccccc1 (stereo not given)	>57	-11%
107	COc1cccc(NC(=O)CSc2nnnn2C(C)C)c1	>57	-7%
108	CCCS(=O)(=O)N1CCCC(C(=O)NCc2ccc(C)cc2)C1 (stereo not given)	>57	9%
109	Cc1cc(C)n(/N=C/c2c[nH]c3ccccc23)c(=O)c1	>57	-8%
110	COc1cc(C2C(C(C)=O)=C(O)C(=O)N2CCc2c[nH]c3ccccc23)ccc1O (stereo not given)	>57	9%
